Compound activity (PubChem)
HCMV UL50-53 inh = inhibitors of HCMV UL50-UL53 interaction, biochemical, HTRF; inhibition, % (no concentration beside the values); 190,000 tested, 0.15% active; normalized percent inhibition; AID 1918969, 2023;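 active means both replicates at 50% or more, plus weaker picks with an unusually low signal ratio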;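 further: stock transfer was 100 nL into about 20 µL; 0% = negative control wells and 100% = wells with untagged competitor protein; inactives centre near -12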
Sa growth 42C = S. aureus growth inhibition at 42 and 30 °C, primary screen, LtaS inhibitor project, RN4220, two temperatures; relative growth, % (no concentration beside the values); OD600, 20 h, 42 °C; stronger effect = lower value; 170,000 tested, 0.53% active;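 active means growth at 42 °C up to 50% and 20 or more points under that at 30 °C, or under 10% at both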;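 further: 300 nL library stock went into each well; scaled to the means of positive and negative controls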
GIV Gai3 FP = inhibitors of GIV peptide binding to Galpha-i3, primary screen, biochemical, fluorescence polarization, FITC-GIV GBA peptide, rat Galphai3 | 90 min; stronger effect = lower value; scaled: aluminum fluoride 0%, vehicle 100% | percent of control (FP), % (no concentration beside the values) | 210,000 tested, 0.42% active | AID 1224905, 2016;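 active means replicate mean at 85% of control or lower, very high polarization wells dropped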;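 further: wells of about 15 µL received 100 nL stock; the first replicate is given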
Target sequence (P08753 whole entry, looked up): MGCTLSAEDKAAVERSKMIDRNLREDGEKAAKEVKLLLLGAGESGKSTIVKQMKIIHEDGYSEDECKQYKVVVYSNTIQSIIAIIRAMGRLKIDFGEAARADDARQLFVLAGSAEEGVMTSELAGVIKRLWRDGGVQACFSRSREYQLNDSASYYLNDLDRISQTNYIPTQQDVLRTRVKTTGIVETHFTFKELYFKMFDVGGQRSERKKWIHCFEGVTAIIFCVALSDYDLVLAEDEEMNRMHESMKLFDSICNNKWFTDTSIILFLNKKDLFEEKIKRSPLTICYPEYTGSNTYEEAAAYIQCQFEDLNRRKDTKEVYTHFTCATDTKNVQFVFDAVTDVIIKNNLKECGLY
Sa growth 42C second temp = recorded beside Sa growth 42C, whose call it bears; relative growth, %; measured here: growth at 30 °C;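 optical density after 20 h as mean of two plates; 100% = untreated growth and lower means inhibition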
Starred values were filed as active, the others as inactive; · = not tested or not shown.

Value order: HCMV UL50-53 inh	Sa growth 42C	Sa growth 42C second temp	GIV Gai3 FP
#1 COc1cccc(N2CCN(CC(=O)c3ccc4ccn(C(C)=O)c4c3)CC2)c1
    -13	96	74	103
#2 Cc1cccc(N2CCN(C(=O)C3CCN(S(=O)(=O)c4cccc5cccnc45)CC3)CC2)c1C
    -26	·	·	107
#3 COc1ccccc1C1=NOC(Cn2c(NCc3ccccc3)nc3c2c(=O)n(C)c(=O)n3C)C1 (stereo not drawn)
    -21	92	84	102
#4 Cc1onc(-c2ccccc2)c1CN1CCOCC1
    -22	98	85	104
#5 Cc1cc(C)cc(OCC(=O)N2Cc3ccccc3CC2C(=O)O)c1 (stereo not drawn)
    2	185	102	·
#6 Cc1ccc(COC2CN(C(=O)c3ccc(Cl)cc3)C2)cc1
    -11	·	·	99
#7 COc1ccccc1-c1noc(CSc2nnc(Cc3ccccc3)n2-c2ccc(C)c(C)c2)n1
    -36	121	86	97
#8 Cn1c(=O)oc2cc(S(=O)(=O)CCC(=O)N3CCN(c4ccccc4F)CC3)ccc21
    ·	116	86	105
#9 CCOC(=O)c1ccc2nc(C(F)(F)F)cc(N3CCN(c4ccccc4)CC3)c2c1
    -32	104	86	102
#10 COc1ccc(C2C(C(=O)N3CCN(c4ccccc4)CC3)c3ccccc3C(=O)N2c2ccc(OC)cc2)cc1 (stereo not drawn)
    2	·	·	102
#11 COC(=O)c1ccc(NC(=O)C(C)Sc2n[nH]c(C)n2)cc1 (stereo not drawn)
    6	89	91	102
#12 CCc1ccc(/C=c2\sc3nc(C4COc5ccccc5O4)nn3c2=O)cc1 (stereo not drawn)
    ·	87	95	102
#13 CC1(C(=O)NC2CCCC2)Cn2c(cc3sccc32)C(=O)N1Cc1cccc(Br)c1 (stereo not drawn)
    12	·	·	101
#14 Cc1ccc(CNC(=O)c2c[nH]c3ccc(S(=O)(=O)Nc4ccc(C(C)C)cc4)cc3c2=O)cc1
    ·	133	85	106
#15 Cc1nnc(SCC(=O)NCC2CCCO2)n1C1CCCCC1 (stereo not drawn)
    -25	83	95	·
#16 Cc1ccc2c(c1)N(C(=O)NCc1ccccc1)CC(C)O2 (stereo not drawn)
    ·	103	80	102
#17 Cc1ccc(-c2nsc(SCC(=O)NCc3ccc4c(c3)OCO4)n2)cc1
    ·	107	95	110
#18 Cn1cnc(S(=O)(=O)N2CCC(C(=O)Nc3ccc(F)cc3F)CC2)c1
    ·	79	88	101
#19 COc1c(Cl)cc(C(=O)N(Cc2ccc(N(C)C)cc2)Cc2ccco2)cc1Cl
    -21	81	69	105
#20 CSc1ccccc1C(=O)NC1CCCCC1
    -9	104	100	103
#21 Cc1cc(C)c2c(N)c(C(=O)N3CCCc4ccccc43)sc2n1
    -9	86	80	97
#22 O=C1COc2cc(S(=O)(=O)N3CCC(C(=O)N4CCN(C5CCCCC5)CC4)CC3)c(Cl)cc2N1
    8	·	·	101
#23 O=C(NCCCn1c(-c2ccncc2)nc2cccnc21)Nc1ccc2c(c1)OCCO2
    -5	·	·	108
#24 O=c1[nH]c2cc3c(cc2c(=O)n1CCc1nc(-c2ccc(Br)cc2)no1)OCO3
    2	·	·	105
#25 Cc1ccc(OCc2nc(CC(=O)O)cs2)cc1
    7	105	99	·
#26 Cc1nn(C2CCS(=O)(=O)C2)c2nc(C3CC3)cc(C(=O)NC3CCCCCC3)c12 (stereo not drawn)
    -9	108	95	·
#27 COCCN1CN=C(Nc2nc(C)c3ccccc3n2)NC1
    -26	·	·	97
#28 N#C/C(=C\Nc1ccccc1F)c1nc(-c2cc3ccccc3oc2=O)cs1
    ·	95	79	103
#29 N=C(N)SCCS(=O)(=O)c1ccccc1
    ·	67	81	106
#30 O=C(NC(C(=O)OCN1C(=O)c2ccccc2C1=O)c1ccccc1)c1ccccc1 (stereo not drawn)
    -22	95	68	100

A second format for two compounds above:
#	smiles	HCMV UL50-53 inh	Sa growth 42C	Sa growth 42C second temp	GIV Gai3 FP
4	Cc1onc(-c2ccccc2)c1CN1CCOCC1	-22	98	85	104
29	N=C(N)SCCS(=O)(=O)c1ccccc1	·	67	81	106

Later entries
Value order: HCMV UL50-53 inh	Sa growth 42C	Sa growth 42C second temp	GIV Gai3 FP
#31 COc1ccc2c(c1OC)C(=O)OC2C/C(=N\NC(N)=O)c1ccccc1 (stereo not drawn)
    -36	70	89	·
#32 COC(=O)c1ccc(Cn2cc(Br)cn2)cc1
    -31	18	0	·
#33 Cc1ccc(S(=O)(=O)C(F)F)cc1
    3	98	96	·
#34 Cc1[nH]c2ccccc2c1C1(O)C(=O)N(C(C)C)c2ccccc21 (stereo not drawn)
    -15	120	100	101
#35 COc1cccc(C2CC(=O)NC(SC)=C2C#N)c1 (stereo not drawn)
    -15	89	90	99
#36 COc1ccccc1N1CCN(c2c(CN3CCCC3)c(=O)oc3ccccc23)CC1
    -8	119	89	105
#37 CC(C)CNC(=O)CSc1nc2nc[nH]c2c(=O)[nH]1
    -15	·	·	98
#38 CCCC(=O)Nc1ccc2c(c1)c1ccccc1n2CC
    ·	97	98	107
#39 O=C(NCc1cccc(Cl)c1)c1ccc(NC(=O)N2CCSc3ncccc32)cc1
    -1	·	·	108
#40 Cc1[nH]c(C)c(S(=O)(=O)N2CCC(C(=O)N3CCN(c4ccc(F)cc4)CC3)CC2)c1C(=O)N1CCCC1
    -7	·	·	109
#41 O=C1C2CCCN2C(=S)N1c1ccccc1 (stereo not drawn)
    -23	71	84	·
#42 O=C(OCC(=O)N1CCC(c2ccccc2)=N1)C1CC2CCCC(C1)C2=O (stereo not drawn)
    -38	96	86	·
#43 CC(NC(=O)c1ccc(N2Cc3ccccc3Oc3ncccc32)s1)c1ccccc1 (stereo not drawn)
    ·	106	83	108
#44 Cc1ccn(-c2ccccc2)n1
    0	89	88	101
#45 CN(Cc1ccccc1)C(=O)Cn1ncc2c1-c1ccccc1OC2
    -5	110	88	95
#46 COc1ccc(NC(=O)C(C)(C)C)cc1CN1CCn2c(nc3ccccc32)C1
    7	·	·	102
#47 Cc1ccc(-c2noc(-c3cc(-c4ccccc4)n[nH]3)n2)cc1
    -32	·	·	105
#48 CCOC(=O)C1=C(N)Oc2ccccc2C1C(C#N)C#N (stereo not drawn)
    -53	87	67	103
#49 CCC(CO)NS(=O)(=O)c1cc(-c2nnc3c4ccccc4c(C)nn23)ccc1OC (stereo not drawn)
    ·	85	94	111
#50 CCN(C(=O)CCNC(=O)Cn1cnc2ccccc2c1=O)c1cc(OC)ccc1OC
    -57	94	83	110
#51 O=C(Cn1cnc2c(nnn2Cc2ccc(Cl)cc2)c1=O)NC1CCCC1
    5	102	94	101
#52 CCN(C(=O)CSc1nc(C)cc(C)c1C(N)=O)C1CCS(=O)(=O)C1 (stereo not drawn)
    11	-1.2*	-0.6*	·
#53 CC(C)OC(=O)c1ccc(NS(=O)(=O)c2cc(-c3ccc(=O)[nH]n3)ccc2Cl)cc1
    -33	·	·	106
#54 C/C(=N/NC(=O)C(F)(F)F)c1cccs1
    -7	102	91	104
#55 COc1ccc(-c2nnc(C3CCN(S(C)(=O)=O)CC3)o2)cc1
    ·	78	75	103
#56 COc1ccc(N2C(=O)c3ccccc3NC2c2ccc(OC)c(COc3ccccn3)c2)cc1 (stereo not drawn)
    -13	·	·	107
#57 COc1ccc(NC(=O)C2CCN(c3ccc(Sc4ccc(C)cc4)nn3)CC2)cc1
    -22	84	85	100
#58 Cc1ccc(C(=O)Nc2nonc2NC(=O)c2ccc(C)cc2)cc1
    ·	102	82	100
#59 O=S1(=O)CCC(N=Cc2ccccc2O)C1 (stereo not drawn)
    4	102	90	·
#60 COC(=O)c1ccc(NC(=O)CSc2nc(C)nc3sc4c(c23)CCC4)cc1
    -9	·	·	104

4 of the entries above in order of the Sa growth 42C second temp value, largest number first.
| cpd | Structure | Sa growth 42C second temp | GIV Gai3 FP |
| --- | --- | --- | --- |
| 35 | COc1cccc(C2CC(=O)NC(SC)=C2C#N)c1 (stereo not drawn) | 90 | 99 |
| 45 | CN(Cc1ccccc1)C(=O)Cn1ncc2c1-c1ccccc1OC2 | 88 | 95 |
| 57 | COc1ccc(NC(=O)C2CCN(c3ccc(Sc4ccc(C)cc4)nn3)CC2)cc1 | 85 | 100 |
| 41 | O=C1C2CCCN2C(=S)N1c1ccccc1 (stereo not drawn) | 84 | · |

(list continues)
Labels used below – A = HCMV UL50-53 inh; B = Sa growth 42C; C = Sa growth 42C second temp; D = GIV Gai3 FP
[61] O=C(CSc1ncnc2ccccc12)Nc1ccc(F)c(F)c1F
  A: 10; B: 105; C: 101; D: ·
[62] Cc1ccccc1-c1oncc1-c1nnnn1-c1ccccc1
  A: 16; B: 121; C: 104; D: 98
[63] COc1cccc(CNC(=O)Cn2nc(N3CCN(c4ccccc4OC)CC3)ccc2=O)c1
  A: ·; B: 100; C: 89; D: 107
[64] CC(=O)Oc1ccc2c(c1)OC1(c3ccc(OC(C)=O)cc3OC(C)=O)CCCC1C21CCCC1 (stereo not drawn)
  A: -11; B: 106; C: 89; D: ·
[65] O=C1c2ccccc2C(=O)c2cc(NC(=O)C(c3ccccc3)c3ccccc3)ccc21
  A: -12; B: ·; C: ·; D: 105
[66] CCOC(=O)c1c[nH]c2c(-c3ccccc3)c(C(F)(F)F)sc2c1=O
  A: -1; B: 109; C: 49; D: 108
[67] CCNc1ncnc2c1nnn2C
  A: ·; B: 94; C: 91; D: 93
[68] Cc1c(-c2nc3ccccc3s2)oc2ccccc12
  A: 12; B: 88; C: 97; D: ·
[69] O=C(Cn1c2ccccc2c(=O)c2ccccc21)N1CCN(c2cccc(Cl)c2)CC1
  A: -14; B: ·; C: ·; D: 105
[70] Cc1ccc2occ(/C=N/N3CC(=O)NC3=O)c(=O)c2c1
  A: -13; B: 103; C: 92; D: ·
[71] O=C(CN1c2ccccc2S(=O)(=O)c2ccccc21)NCc1ccccc1Cl
  A: 9; B: ·; C: ·; D: 105
[72] CCCN(Cc1nnc(-c2ccco2)o1)C(=O)CSc1nc2ccccc2n1C
  A: -23; B: 90; C: 90; D: ·
[73] Cn1cc(-c2nc3ccccc3s2)c(N)n1
  A: -31; B: 99; C: 83; D: 140
[74] CCCC(=O)C1=C(c2ccc(C)cc2)N(C(=O)CCC)n2cnnc2S1
  A: ·; B: 93; C: 95; D: 105
[75] COc1ccccc1NC(=O)C(C)Sc1nnc(N)s1 (stereo not drawn)
  A: 7; B: 98; C: 97; D: ·
[76] O=C(NC1CCCCC1)C1CCN(c2ccc3nncn3n2)CC1
  A: -16; B: ·; C: ·; D: 101
[77] COC(=O)NC(Nc1ccccc1C(F)(F)F)C(=O)c1ccccc1 (stereo not drawn)
  A: 6; B: 101; C: 81; D: ·
[78] Cc1cccc(NC(c2ccc3c(c2)OCO3)c2c(NC(=O)c3ccccc3)sc(C)c2C)n1 (stereo not drawn)
  A: -19; B: ·; C: ·; D: 105
[79] O=C(c1ccc(F)c(Cl)c1)N1CCN(c2cc(=O)n3nc(-c4ccccc4)sc3n2)CC1
  A: 5; B: ·; C: ·; D: 108
[80] O=C1C2ON(c3ccc(Br)cc3)C(c3cccnc3)C2C(=O)N1c1ccccc1 (stereo not drawn)
  A: -4; B: 100; C: 86; D: 105
[81] Cc1[nH]c2ccccc2c1C(=O)CSc1nc2cc(S(=O)(=O)N3CCCCC3)ccc2o1
  A: -22; B: 108; C: 95; D: ·
[82] CCn1cc(C(=O)NCCc2c(C)[nH]c3ccc(OC)cc23)c(C)n1
  A: -2; B: 96; C: 78; D: ·
[83] Cc1nc2nc3c(c(Nc4ccc5c(c4)OCCO5)n2n1)CCC3
  A: 7; B: ·; C: ·; D: 100
[84] COc1ccc(N2C(=O)CSC23C(=O)N(CC(N)=O)c2ccccc23)cc1 (stereo not drawn)
  A: ·; B: 106; C: 92; D: 108
[85] CSc1nc(-c2ccco2)nn1C(=O)c1ccccc1
  A: ·; B: 91; C: 100; D: 95

Ordered by count of non-hydrogen atoms (lowest first): 5 of the compounds above
Labels used below – A = HCMV UL50-53 inh; B = Sa growth 42C; C = Sa growth 42C second temp; D = GIV Gai3 FP
[76] O=C(NC1CCCCC1)C1CCN(c2ccc3nncn3n2)CC1
  A: -16; B: ·; C: ·; D: 101
[82] CCn1cc(C(=O)NCCc2c(C)[nH]c3ccc(OC)cc23)c(C)n1
  A: -2; B: 96; C: 78; D: ·
[80] O=C1C2ON(c3ccc(Br)cc3)C(c3cccnc3)C2C(=O)N1c1ccccc1 (stereo not drawn)
  A: -4; B: 100; C: 86; D: 105
[81] Cc1[nH]c2ccccc2c1C(=O)CSc1nc2cc(S(=O)(=O)N3CCCCC3)ccc2o1
  A: -22; B: 108; C: 95; D: ·
[78] Cc1cccc(NC(c2ccc3c(c2)OCO3)c2c(NC(=O)c3ccccc3)sc(C)c2C)n1 (stereo not drawn)
  A: -19; B: ·; C: ·; D: 105

One compound at a time (already shown). Order of screens: HCMV UL50-53 inh, Sa growth 42C, Sa growth 42C second temp, GIV Gai3 FP
CC(=O)Oc1ccc2c(c1)OC1(c3ccc(OC(C)=O)cc3OC(C)=O)CCCC1C21CCCC1 (stereo not drawn) is entered as -11, 106, 89, ·
Cc1[nH]c2ccccc2c1C(=O)CSc1nc2cc(S(=O)(=O)N3CCCCC3)ccc2o1 is entered as -22, 108, 95, ·
COc1c(Cl)cc(C(=O)N(Cc2ccc(N(C)C)cc2)Cc2ccco2)cc1Cl is entered as -21, 81, 69, 105
CCNc1ncnc2c1nnn2C is entered as ·, 94, 91, 93
CSc1nc(-c2ccco2)nn1C(=O)c1ccccc1 is entered as ·, 91, 100, 95
